E coli growth: E. coli growth inhibition; Escherichia coli growth, OD600, 23 h; hits give low values; AID 1053175; 330,000 compounds, 0.21% hits; OD600 absorbance (test concentration not listed);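 active = OD600 absorbance below the run mean of sample wells minus 3.6 SD, in any replicate, cut at about 0.56 in these data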;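 also: stock transfer was 300 nL into about 60 µL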
Vif TR-FRET: inhibitors of Vif binding to APOBEC3G peptide, primary screen, biochemical, TR-FRET, GST-Vif 1-94, biotin-A3G peptide, dose response retest (AID 1117319); inhibition, %, or IC50 in µM where a hit was titrated; 260,000 compounds, 0.57% hits; TR-FRET GST-Vif / biotin-A3G peptide binding; higher % means a stronger effect; test concentration not given here; strong numbers were not always called active;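 active = above the screen mean plus three standard deviations and confirmed in dose response; inconclusive = results disagree or hit not tested in dose response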;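 also: Vif residues 1-94 fused to GST binding biotinylated APOBEC3G peptide 110-148; 0% = full assay without inhibitor and 100% = GST in place of GST-Vif; retest series ran down from 100 µM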
UCH37 inh: inhibitors of human deubiquitinating enzyme UCH37 | Q9Y5K5 | 330,000 compounds, 0.33% hits | purified proteasome/UCH37, Ub-AMC cleavage fluorescence | inhibition, % (test concentration not listed);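 active = mean of two replicates above 20%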;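 also: 0% = compound-free wells with enzyme and 100% = wells lacking proteasome; stock transfer was 100 nL into about 20 µL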
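Signal – fluorescence, ex 355 nm, em 460 nm · System – Proteasome-bound UCH37 · Input – 0.15 nM proteasome as dispensed · Timing – 30 min preincubation with enzyme, 25 min cleavage at room temperature · Read-out basis – percent inhibition of cleavage signal versus uninhibited and no-proteasome wells · Medium – Tris-HCl pH 7.4 with ATP-MgCl2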
HNF4A DNA FP: change in binding of human HNF4 alpha to DNA; HNF4a-FITC DNA binding, fluorescence polarization, 1 h; activity change, % at 10 µM; 360,000 compounds, 0.3% hits; AID 1224865; in the data active = activity change above about 30%, passing the limit was not always enough;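 also: controls were the assay level and a saturating level of protein; the project sought stronger binding though the title names inhibitors; some compounds called inactive have numbers as strong as hits; positive values seem to mean higher polarization but the record does not say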
Target sequence (P41235 whole entry, looked up): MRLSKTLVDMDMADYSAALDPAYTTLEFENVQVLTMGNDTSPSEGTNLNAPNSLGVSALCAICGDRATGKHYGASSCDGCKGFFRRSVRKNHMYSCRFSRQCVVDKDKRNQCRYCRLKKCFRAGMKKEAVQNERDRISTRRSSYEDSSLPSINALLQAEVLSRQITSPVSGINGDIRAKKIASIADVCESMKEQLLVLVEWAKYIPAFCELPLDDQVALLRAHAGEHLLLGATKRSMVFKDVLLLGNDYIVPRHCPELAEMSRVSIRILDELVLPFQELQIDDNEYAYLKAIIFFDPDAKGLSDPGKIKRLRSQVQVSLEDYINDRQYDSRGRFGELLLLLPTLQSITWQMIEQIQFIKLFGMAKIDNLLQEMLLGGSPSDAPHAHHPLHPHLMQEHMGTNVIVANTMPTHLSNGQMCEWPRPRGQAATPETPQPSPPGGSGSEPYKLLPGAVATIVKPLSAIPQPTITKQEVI
RanGTP-Imp inh: inhibitors of RanGTP-importin-beta interaction, primary screen, biochemical, FRET, CFP-Ran, YFP-importin-beta, homogeneous; cell-free CFP-Ran/YFP-importin-beta FRET ratio; inhibition, % (concentration not given with the values); 300,000 compounds, 1.1% hits;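 active = most replicates above 15%; inconclusive = exactly half above 15%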;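 also: 0% = DMSO wells and 100% = Ran loaded with GDP instead of GTP; wells of about 40 µL received 100 nL stock; the first replicate is given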
FGF22 binding: binders of recombinant human FGF22 by thermal shift. SYPRO orange fluorescence; percent of sucrose octasulfate shift, DMSO zero. calls only at 9.99 µM. 340,000 compounds, 1.5% hits;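 active = melting point raised past a set limit in the mean and every replicate; inconclusive = no clear call; three in four hits are not shown here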
Target sequence (Q9HCT0 whole entry, looked up): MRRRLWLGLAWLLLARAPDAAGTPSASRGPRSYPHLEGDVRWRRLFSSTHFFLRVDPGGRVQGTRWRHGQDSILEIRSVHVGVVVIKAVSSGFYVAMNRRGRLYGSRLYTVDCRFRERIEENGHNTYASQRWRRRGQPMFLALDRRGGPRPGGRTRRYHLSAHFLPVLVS
AF4-AF9 inh: MLL-AF4/AF9 protein interaction inhibition; P42568; AlphaScreen, biotin-AF4 peptide binding to FLAG-AF9; inhibition, % at 10 µM; 350,000 compounds, 0.47% hits; AID 651704;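 active = every replicate reaching a set inhibition limit, whatever the replicate mean, cut at about 25% in these data; inconclusive = mean inhibition reaches that limit but some replicates miss it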;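 also: 0% = plate neutral control median and 100% = total signal loss; the record names both 10 and 1 µM as test concentration; the first replicate is given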
* hit, by the source's call; i = inactive; u = inconclusive; x = not tested or not shown. A portion of the library; count on the stated rates, not on these rows.

SMILES	E coli growth	Vif TR-FRET	UCH37 inh	HNF4A DNA FP	RanGTP-Imp inh	FGF22 binding	AF4-AF9 inh
COc1ccc(-c2cn3cccc(C)c3n2)cc1Br	0.62	-4%	-1.2	-2.9	-3.9	x	x
COc1ccc(C(=O)Nc2ccc(NC(=O)c3ccccn3)cn2)cc1	0.65	1%	-11	-1.6	-1.3	i	-0.2
CCOc1ccc(NC(=O)c2ccc(Cn3nc(C)cc3C)o2)cc1	0.69	x	1.5	-2.9	-1.5	i	-2.2
CN(C)C(CNC(=O)c1cc(S(=O)(=O)N(C)Cc2ccccc2)ccc1Cl)c1ccco1 (centres undefined)	0.65	6%	-3.5	-1.3	3.0	i	3.2
Cc1cc(C)n2c(SCC(=O)NCc3ccco3)nnc2n1	0.74	u	3.0	2.7	3.7	x	x
CC(C)(C)n1nnnc1C(c1cccc(C(F)(F)F)c1)N1CCC(O)CC1 (centres undefined)	0.69	-6%	1.5	-1.5	1.0	i	-0.7
CCOc1ccccc1N1CCN(C(=O)c2ccc(NS(=O)(=O)c3ccc4[nH]c(=O)[nH]c4c3)cc2)CC1	0.6	1%	4.0	0.0	-0.7	i	9.0
CC(=O)c1c(C)[nH]c(C(=O)COC(=O)c2c(C)noc2C)c1C	0.7	-5%	-1.4	0.8	x	i	-17
NC(=O)c1nsc(C(=O)N(CC(=O)NCc2ccco2)c2ccccc2F)c1N	0.68	x	-86	2.1	-2.4	x	x
COc1ccc(/C=N/NC(=O)c2cnccn2)cc1O	x	3%	x	-2.0	-2.7	x	x
COc1cccc(OCC(=O)NNC(=O)C(=O)Nc2cccc(C)c2)c1	0.71	0%	3.7	3.2	2.6	i	-14
O=S(=O)(NCCn1cccc1)c1ccc2ccccc2c1	0.69	-3%	1.1	3.3	-1.1	i	-0.5
Cn1ccnc1C(OC(=O)c1ccc(Cl)cc1)C(F)(F)F (centres undefined)	0.68	1%	5.2	5.0	-6.3	i	3.6
CN(CC(=O)Nc1ccccc1Cl)C(=O)Cn1cc(C(F)(F)F)ccc1=O	0.69	x	4.1	0.9	x	i	-0.1
COc1ccc(/C=N/OCC(=O)NCc2cccs2)c(OC)c1	x	-3%	x	-2.0	-1.6	x	x
CCc1nnc(NC(=O)Cn2ccc(C(F)(F)F)n2)s1	0.7	1%	1.8	-0.8	2.0	x	x

Profiles as entered above. Order of values: E coli growth | Vif TR-FRET | UCH37 inh | HNF4A DNA FP | RanGTP-Imp inh | FGF22 binding | AF4-AF9 inh
COc1cccc(OCC(=O)NNC(=O)C(=O)Nc2cccc(C)c2)c1 is listed with 0.71 | 0% | 3.7 | 3.2 | 2.6 | i | -14
Cn1ccnc1C(OC(=O)c1ccc(Cl)cc1)C(F)(F)F (centres undefined) is listed with 0.68 | 1% | 5.2 | 5.0 | -6.3 | i | 3.6
COc1ccc(/C=N/NC(=O)c2cnccn2)cc1O is listed with x | 3% | x | -2.0 | -2.7 | x | x
COc1ccc(/C=N/OCC(=O)NCc2cccs2)c(OC)c1 is listed with x | -3% | x | -2.0 | -1.6 | x | x
CN(CC(=O)Nc1ccccc1Cl)C(=O)Cn1cc(C(F)(F)F)ccc1=O is listed with 0.69 | x | 4.1 | 0.9 | x | i | -0.1

(listing goes on)
SMILES	E coli growth	Vif TR-FRET	UCH37 inh	HNF4A DNA FP	RanGTP-Imp inh	FGF22 binding	AF4-AF9 inh
COc1ccc(CCN=C(N)NS(=O)(=O)c2ccc(C)c(C)c2)cc1	0.66	u	5.3	-0.2	-1.4	i	-0.5
CC1=C(C(=O)N2CCCCCC2)CC(CC(=O)NCCN2CCOCC2)C(=O)N1CCCN1CCCC1=O (centres undefined)	x	x	x	-3.5	x	i	-0.7
O=C(NCc1ccccc1)C(c1ccncc1)N(C(=O)c1csnn1)c1cccc(F)c1 (centres undefined)	0.68	-4%	2.8	-2.0	-3.1	i	4.6
CCNC(=S)Nc1sc2c(c1C#N)CCC(C)C2 (centres undefined)	0.64	-11%	2.0	0.7	-3.3	i	1.0
Cc1cc2nc3c(c(C(F)(F)F)n2n1)CCCC3	0.7	-8%	6.3	-0.8	x	i	-0.2
O=C(CCc1nc(-c2ccc(Cl)cc2)no1)OCc1ccc(Br)cc1	0.77	-3%	3.5	-2.3	-4.7	x	x
COc1ccc(NC(=O)C/C(C)=N/NC(=O)C(=O)NC(C)C)c(OC)c1	x	11%	x	1.4	-3.9	i	1.6
COc1ccc2sc(-c3ccc(S(C)(=O)=O)cc3)c(-c3ccc4c(c3)OCCO4)c2c1	x	x	-6.8	5.6	x	i	2.3
COc1ccc(C(C(=O)NCC2CCCO2)N(Cc2ccccc2)C(=O)CNC(=O)c2ccco2)cc1OC (centres undefined)	0.65	x	2.3	-2.2	2.3	x	-1.8
C=CCn1c(SCC(=O)NC23CC4CC(CC(C4)C2)C3)nc2cc(C(=O)O)ccc2c1=O	0.73	-5%	-1.0	1.2	2.9	i	1.6
Cc1ccc(OCC(=O)N(C)CCc2ccccn2)cc1	0.71	-1%	3.2	3.4	1.6	x	x
CCn1c(=O)c(=O)[nH]c2c(=O)oc3ccc(S(=O)(=O)Nc4ccccc4)cc3c21	0.64	-9%	-18	-1.3	0.7	i	-1.7
COc1ccc(Cl)cc1C(=O)Nn1cnnc1	0.66	x	0.3	2.5	-2.3	i	4.2
COc1ccc(N2C(=O)NC(NS(=O)(=O)c3ccc(Cl)cc3)(C(F)(F)F)C2=O)cc1 (centres undefined)	0.65	x	2.3	-0.5	0.1	i	-1.7
CCCN1C(=O)CN(C2CCCCCC2)C(=O)C1c1ccc(C)cc1 (centres undefined)	0.7	19%	5.5	1.8	u	x	x
CC(NC(=O)C(c1ccccc1)c1ccccc1)c1ccc(S(N)(=O)=O)cc1 (centres undefined)	0.69	x	1.4	1.2	0.4	i	1.5
COc1ccc(Nc2nnc(C)c3ccccc23)cc1C(N)=O	0.74	2%	5.2	2.0	4.1	x	x
Cc1cc(C)c(OCCCON2C(=O)CCC2=O)c(Br)c1	0.68	4%	3.5	-2.6	-6.8	i	-2.3
O=C(CN1CCN(Cc2ccc(Cl)cc2)CC1)N1CCc2ccccc21	0.64	-2%	1.3	0.9	3.7	i	4.3
COc1ccc(C(C(=O)NCc2ccccc2)N(Cc2ccco2)C(=O)c2cnccn2)cc1 (centres undefined)	0.7	-5%	-1.3	-1.4	-3.3	i	0.2

Three entries picked at random from the list so far:
SMILES	E coli growth	Vif TR-FRET	UCH37 inh	HNF4A DNA FP	RanGTP-Imp inh	FGF22 binding	AF4-AF9 inh
COc1ccc(Nc2nnc(C)c3ccccc23)cc1C(N)=O	0.74	2%	5.2	2.0	4.1	x	x
Cc1cc(C)c(OCCCON2C(=O)CCC2=O)c(Br)c1	0.68	4%	3.5	-2.6	-6.8	i	-2.3
COc1ccc(C(C(=O)NCc2ccccc2)N(Cc2ccco2)C(=O)c2cnccn2)cc1 (centres undefined)	0.7	-5%	-1.3	-1.4	-3.3	i	0.2

Source: PubChem BioAssay (several laboratories)
